Yeast UUG start: alters start codon recognition fidelity in yeast; activity score, % at 18.7 µM; AID 602363; 0.13% of 350,000 active; S. cerevisiae UUG-firefly luciferase reporter, luminescence/redox ratio;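 active = replicate mean at a twofold rise or more, about +100% in these data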;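 also: firefly luciferase made from a UUG start codon reports start codon fidelity; reporter light over untreated wells divided by growth signal over untreated wells; some hits fall short of that in this replicate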
Rce1 inhib: blocks yeast Ras-converting enzyme | Q03530 | yeast membranes, quenched prenylated peptide cleavage fluorescence | calls only | 0.27% of 290,000 active | AID 2563;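 active = fall in fluorescence gain of 50% or more versus controls, with final raw signal at or below 3038400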;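 also: plate controls were neutral control wells for no effect and wells lacking membranes for full effect; tested at 10 µM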
Target sequence (Q03530 whole entry, looked up): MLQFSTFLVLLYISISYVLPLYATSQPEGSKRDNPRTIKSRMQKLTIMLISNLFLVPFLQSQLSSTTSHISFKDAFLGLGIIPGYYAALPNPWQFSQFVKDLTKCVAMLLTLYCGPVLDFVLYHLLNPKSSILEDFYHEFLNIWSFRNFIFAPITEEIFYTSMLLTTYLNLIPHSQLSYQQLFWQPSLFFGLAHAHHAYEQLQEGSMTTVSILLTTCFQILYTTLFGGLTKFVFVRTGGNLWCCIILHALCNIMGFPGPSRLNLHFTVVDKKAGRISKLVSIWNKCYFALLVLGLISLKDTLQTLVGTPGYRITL
CSC inhib: cancer stem cell inhibition | cancer stem cell-like cells viability, luminescence | inhibition, % at 7.5 µM | 1.1% of 300,000 active;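 active = mean at 75% or more and at least half the replicates too; tested in HMLE shEcad cells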;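 also: 0% = median of negative and 100% = median of positive control wells; the first replicate is given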
HIV Env fusion: inhibitors of HIV Env-mediated cell fusion | HeLa-JRFL Env/CEM21 cell fusion, luciferase | inhibition, % at 12.3 µM | 1.1% of 360,000 active | AID 651610;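 active = mean replicate inhibition score of at least 50 and every replicate individually at or above 50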;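 also: 0% = plate neutral controls and 100% = maraviroc near 300 nM; one replicate is shown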
PABP FP inh: blocks human PABP binding to poly(A) RNA | 1% of 290,000 active | AID 2014 | fluorescence polarization | P11940 | inhibition, % at 35 µM;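 active = 50% or more with normal probe brightness, or confirmed in later tests; about a fifth of its hits are not listed in these tables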;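 also: calls also rest on retests at 20 µM and on dose response follow-up; controls were probe without protein and protein plus probe with vehicle; some compounds called inactive have numbers as strong as hits; many hits fall short of the cut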
Target sequence (P11940 whole entry, looked up): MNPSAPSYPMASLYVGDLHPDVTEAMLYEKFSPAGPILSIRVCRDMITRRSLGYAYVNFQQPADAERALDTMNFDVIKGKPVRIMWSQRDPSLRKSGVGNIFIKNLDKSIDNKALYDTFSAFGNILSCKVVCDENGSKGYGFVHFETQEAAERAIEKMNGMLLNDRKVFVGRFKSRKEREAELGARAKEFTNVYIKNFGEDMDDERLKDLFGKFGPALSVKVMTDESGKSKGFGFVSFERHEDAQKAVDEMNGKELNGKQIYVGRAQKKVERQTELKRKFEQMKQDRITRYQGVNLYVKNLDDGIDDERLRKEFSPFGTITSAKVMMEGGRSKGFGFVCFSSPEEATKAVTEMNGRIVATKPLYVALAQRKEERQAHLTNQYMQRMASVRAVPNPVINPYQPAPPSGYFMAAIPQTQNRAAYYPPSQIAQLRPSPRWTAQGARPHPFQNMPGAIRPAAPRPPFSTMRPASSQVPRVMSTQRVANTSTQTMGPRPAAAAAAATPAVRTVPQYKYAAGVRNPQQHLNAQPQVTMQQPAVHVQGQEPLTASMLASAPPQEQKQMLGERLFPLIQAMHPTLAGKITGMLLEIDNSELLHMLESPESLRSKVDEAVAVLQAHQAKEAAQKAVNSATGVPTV
eIF4H FP inh: inhibitors of RNA binding by human eIF4H. 0.94% of 290,000 active. AID 2012. inhibition, % at 35 µM. eIF4H fluorescence polarization binding assay;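 active = 50% or more with normal probe brightness, or confirmed in later tests; about a fifth of its hits are not listed in these tables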;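 also: calls also rest on retests at 20 µM and on dose response follow-up; 0% = protein and probe with vehicle and 100% = probe without protein; strong numbers were not always called active; many hits fall short of the cut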
MT1-MMP act inh: blocks activation of human MT1-MMP. 0.061% of 360,000 active. HT1080 RFP-PRO-GFP cells, GFP/RFP ratio fluorescence, overnight; percent of plate control window, DMSO zero. GFP/RFP ratio change, % at 20 µM. AID 651647;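 active = GFP/RFP ratio change of at least 30% with cell ATP level not reduced by more than half and red fluorescence within 50% of control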; also: strong numbers were not always called active
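Assay system: HT1080 cells carrying an RFP-PRO-GFP reporter | Dosing: Single dose of 20 µM compound, 1% DMSO final | Incubation: Cells overnight before dosing, compound overnight, 37 °C, 5% CO2 | Evaluation: GFP/RFP fluorescence ratio | Control set: DMSO and RFP-L50D-GFP cell wells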
eIF4H FP inh retest: recorded beside eIF4H FP inh, whose call it bears; inhibition, %; compound at 20 µM; confirmation average;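 mean of two retest wells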
PABP FP inh retest: recorded beside PABP FP inh, whose call it bears; inhibition, %; compound at 20 µM; confirmation repeats;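 mean of two retest wells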
MT1-MMP act inh RFP: further read-out of MT1-MMP act inh, marked with its call; RFP signal change, %; measured here: RFP expression control read;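 0 = vehicle wells; hits needed this value within 50% of zero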
Starred values were filed as active, the others as inactive; i = inactive; nt = not tested or not shown; & = joins results of further samples.

SMILES	Yeast UUG start	Rce1 inhib	CSC inhib	HIV Env fusion	PABP FP inh	eIF4H FP inh	MT1-MMP act inh	MT1-MMP act inh RFP	others
Cc1ccccc1C(=NCCCN(C)C)c1ccccc1C	-17	i	-8	1	5	4	-24	-21
COc1ccc(Cl)cc1S(=O)(=O)n1ccnc1C(C)C	2	i	-1	nt	-1	-19	-1	5
CN1CCN(c2ccc(NC(=O)c3ccc(-c4ccc(Cl)cc4)o3)cc2)CC1	4	i	105*	-63	-9	-11	-7	-1
CCOc1ccc(CCNC(=O)c2ccc3c(=O)n4c(nc3c2)CCCCC4)cc1	-14	i	30	8	7	4	-3	-11
Nc1nnc(Cc2cccc(Br)c2)s1	-8	i	9	-8	26	19	2	2
O=C(c1ccc(Br)s1)N1CCN(Cc2ccc3c(c2)OCO3)CC1	-2	i	-4	17	-9	1	-5	-4
C[C@H](CO)N1C[C@H](C)[C@@H](CN(C)C(=O)Nc2ccc3c(c2)OCO3)Oc2ccc(NS(=O)(=O)c3cn(C)cn3)cc2C1=O	-6&2	nt	-23	-16	nt	nt	0	7
COc1ccc(-c2cc(C(F)(F)F)n3nc(N)nc3n2)cc1	nt	i	10	nt	4	-3	4	-3
Cc1ccc(-c2csc(=Nc3cccnc3)n2CCCN2CCCC2=O)cc1C	nt	i	-38	0	-8	-4	-6	-6
CCCc1cnc(N2CCN(C(=S)NC)CC2)nc1	nt	nt	-11	-35	-4	0	6	3
O=C(COC(=O)/C=C/c1ccc(Br)o1)NC1CCCCC1	-15	nt	-7	3	nt	nt	-1	1
O=C(O)c1nccnc1C(=O)Nc1ccc(Cl)cn1	-18	i	1	8	0	0	0	4
CSc1nc2ccc(S(=O)(=O)N3CCCCC3)cc2s1	-13	i	-18	-33	-1	5	5	-6
Cc1ccc(NC(=S)Nc2cc(C)on2)cc1	-7	i	0	-55	4	-1	0	1
COc1ccccc1C(=O)NCC(=O)NCC1(N2CCCCC2)CCCCC1	-6	i	-2	5	nt	nt	3	4
O=C(CO/N=C/c1ccc(OC(F)F)cc1)NC1CCCCCC1	nt	i	0	2	8	-2	2	3
CC1CCCCN1C(=O)c1cc(Cl)ccc1[N+](=O)[O-] (stereo unspecified)	-23	i	-5	-2	-2	-7	-1	2
CCC(CC)C(=O)N(c1ccc(F)cc1)C1C=CS(=O)(=O)C1 (stereo unspecified)	-18	i	-18	nt	-14	-8	-1	0
O=C(COC(=O)CSc1ccc(Br)cc1)NCc1ccco1	-1	i	-3	10	nt	nt	3	4
Cn1c(NNC(=O)/C=C/c2ccc3c(c2)OCO3)cc(=O)n(C)c1=O	-32	nt	-3	-29	3	3	-4	-1
COc1ccc(C(=O)N2CCC2(C)C(=O)NC(C)C)c(OC)c1 (stereo unspecified)	-10	nt	nt	1	nt	nt	-1	0
COc1cccc(CC(NC(C)=O)C(=O)NC2CCN(c3c(Cc4ccccc4)c(C)nc4ncnn34)CC2)c1 (stereo unspecified)	-6	i	11	nt	-8	2	10	1
Cc1ccc(CNC(=O)CN2C(=O)NC(C)(c3cccc(Br)c3)C2=O)cc1 (stereo unspecified)	5	i	-3	17	-9	-13	2	1
CC(C)c1c(C(=O)N/N=C/c2ccc(C(F)(F)F)cc2)nnn1-c1nonc1N	-2	i	27	-4	5	-1	6	-1
O=[N+]([O-])c1cc(/C=N/N2CCCCC2)ccc1Cl	nt	nt	6	-27	-14	-8	4	-1
COc1ccc(-c2coc3cc(OC)cc(O)c3c2=O)cc1	-9	i	-7	nt	2	5	-3	-2
O=C(O)c1cccc(NN=C2c3ccccc3-c3ccccc32)c1	nt	i	nt	0	-10	15	-2	0
Cc1noc(/C=C/c2ccco2)c1S(=O)(=O)N1CCC(C(=O)Nc2ccc(Cl)cn2)CC1	-20	i	5	18	0	59	-15	-25	eIF4H FP inh retest=-3;PABP FP inh retest=-2
O=C(Nc1ccc(-c2noc(-c3cccs3)n2)cc1)c1cccnc1	nt	i	16	nt	-5	5	6	-4
COc1cccc(NC(=O)c2ccccc2)c1	-5	nt	-3	-47	nt	nt	-1	-4
O=P(CCC(F)(F)F)(CCC(F)(F)F)CCC(F)(F)F	-1	i	-3	-69	-8	-6	-3	-1
Cc1ccccc1CC1(CO)CCCN(C(=O)Cc2c(F)ccc(F)c2F)C1 (stereo unspecified)	0	i	nt	3	-3	-5	-1	-8
O=C(C1=CC=CN2CCS(=O)(=O)N=C12)N1CCN(c2cccc(Cl)c2)CC1	6	nt	-10	nt	nt	nt	-4	1
Cn1nnnc1SCC(=O)Nc1c(Cl)cccc1Cl	-18	i	-7	nt	2	-3	-2	2
O=C(c1ccccc1)N1N=C(C(F)(F)F)CC1(O)c1ccc(F)cc1 (stereo unspecified)	-13	i	19	20	-6	-5	0	-7
COc1cccc(CN(C)C(=O)c2ccc3c(=O)n4c(nc3c2)CCC4)c1OC	-10	i	nt	nt	-15	-16	0	5
COc1ccccc1CN(CC(=O)NCc1ccco1)C(=O)CNS(=O)(=O)c1ccc(C)cc1	12	i	-6	nt	2	8	7	-1
CCc1cc(=O)oc2cc(C)cc(OCC(=O)NCc3ccccn3)c12	-24	i	-2	2	-4	-8	1	-1
CCCNC(=O)c1cc(C2CCCCN2C(=O)OCCF)on1 (stereo unspecified)	-26	nt	nt	3	nt	nt	-1	4
Cc1ccc(-c2csc(NC(=O)c3cccc(N4C(=O)CCC4=O)c3)n2)o1	-11	i	2	nt	-2	-9	-1	2

Reprinted at random: five records from the list
SMILES	Yeast UUG start	Rce1 inhib	CSC inhib	HIV Env fusion	PABP FP inh	eIF4H FP inh	MT1-MMP act inh	MT1-MMP act inh RFP	others
Cc1ccc(CNC(=O)CN2C(=O)NC(C)(c3cccc(Br)c3)C2=O)cc1 (stereo unspecified)	5	i	-3	17	-9	-13	2	1
Cc1ccc(-c2csc(NC(=O)c3cccc(N4C(=O)CCC4=O)c3)n2)o1	-11	i	2	nt	-2	-9	-1	2
CCCNC(=O)c1cc(C2CCCCN2C(=O)OCCF)on1 (stereo unspecified)	-26	nt	nt	3	nt	nt	-1	4
COc1ccccc1C(=O)NCC(=O)NCC1(N2CCCCC2)CCCCC1	-6	i	-2	5	nt	nt	3	4
Cn1c(NNC(=O)/C=C/c2ccc3c(c2)OCO3)cc(=O)n(C)c1=O	-32	nt	-3	-29	3	3	-4	-1

More entries
SMILES	Yeast UUG start	Rce1 inhib	CSC inhib	HIV Env fusion	PABP FP inh	eIF4H FP inh	MT1-MMP act inh	MT1-MMP act inh RFP	others
CCOC(=O)c1ccc(S(=O)(=O)N2CCN(c3ccccn3)CC2)cc1	-21	i	-4	-1	14	-14	7	-4
Cc1ccc(C)c(Cn2c(=O)c3c(nc4n3CCN4Cc3ccco3)n(C)c2=O)c1	-15	i	-6	-2	-1	-15	7	4
O=C(NC1CCCCCC1)C1CCN(S(=O)(=O)c2cccc3cccnc23)CC1	-7	i	-16	-16	6	-7	-4	2
CCc1cc(-c2cnnn2Cc2ccc3ccccc3c2)ccc1-c1cn(CC(C)C)nn1	-4	nt	nt	-42	nt	nt	-8	-14
NC(=O)Nn1c(CCC(=O)O)ccc1-c1ccc(Br)cc1	-10	nt	5	nt	2	-3	-1	0
CC(C)c1ccc(OCc2nc(-c3ccccn3)no2)c(Br)c1	-6	i	23	-154	3	7	18	6
Cc1cccc(NC(=O)CSc2nc3nc4c(cc3c(=O)n2-c2ccccc2)CCCC4)c1	-11	i	-4	-14	-7	-20	4	-9
O=c1c2cc(NC(=S)NC3CCCCC3)ccc2nc2n1CCCCC2	nt	i	14	-8	-8	-5	-1	-13
O=C(c1cc2ccccc2c(=O)o1)N1CCCCCC1	nt	i	11	-3	1	-3	-2	3
O=C(NC(=S)Nc1ccc(S(=O)(=O)Nc2ccccc2)cc1)C1CC1	nt	i	-4	0	-7	1	1	7
CC(NC(=O)Cn1ncc(Cl)c(Cl)c1=O)C12CC3CC(CC(C3)C1)C2 (stereo unspecified)	nt	i	116*	nt	-4	8	-48	-51
Oc1ccc(C2=NNC(=NCc3ccc4c(c3)OCO4)SC2)c(O)c1	-10	i	68	3	8	26	-3	-12
Cc1ccc(-c2ccc(CN3C(C)C(=O)N(Cc4cn(CC5CCCCC5)nn4)CCS3(=O)=O)cc2)cc1 (stereo unspecified)	12	nt	nt	-3	nt	nt	-3	-11
Cc1ccc(C)c(N(CC(=O)NCc2ccccc2)C(=O)c2csnn2)c1	-20	nt	-13	5	8	-1	0	2
COc1cccc(NS(=O)(=O)c2ccc3[nH]cc(C(=O)NCCC(C)C)c(=O)c3c2)c1	-14	i	19	nt	2	-9	-5	-21
Cc1ccc(C)c(S(=O)(=O)N2CCN(C(=O)CCNS(=O)(=O)c3ccc(C)c(C)c3)CC2)c1	-14	i	10	3	nt	nt	-4	-6
Cc1cccc(N2CCN(C(=S)c3ccccc3)CC2)c1	1	i	nt	-2	0	-3	0	1
NC(=O)COc1ccc(NS(=O)(=O)Cc2ccccc2)cc1	-16	i	-24	10	-9	0	-3	1
COc1ccc2ccn(S(=O)(=O)c3ccccc3)c2c1	-15	i	1	10	1	-4	0	0
CCC(C(=O)NC1CCCC1)N(C(=O)c1snc(C(N)=O)c1N)c1ccc(OC)cc1 (stereo unspecified)	-25	i	nt	18	0	-8	1	2

Ordered by molecular weight (low to high): some entries from above.
SMILES	Yeast UUG start	Rce1 inhib	CSC inhib	HIV Env fusion	PABP FP inh	eIF4H FP inh	MT1-MMP act inh	MT1-MMP act inh RFP	others
Cc1cccc(N2CCN(C(=S)c3ccccc3)CC2)c1	1	i	nt	-2	0	-3	0	1
NC(=O)COc1ccc(NS(=O)(=O)Cc2ccccc2)cc1	-16	i	-24	10	-9	0	-3	1
NC(=O)Nn1c(CCC(=O)O)ccc1-c1ccc(Br)cc1	-10	nt	5	nt	2	-3	-1	0
CC(NC(=O)Cn1ncc(Cl)c(Cl)c1=O)C12CC3CC(CC(C3)C1)C2 (stereo unspecified)	nt	i	116*	nt	-4	8	-48	-51
O=C(NC1CCCCCC1)C1CCN(S(=O)(=O)c2cccc3cccnc23)CC1	-7	i	-16	-16	6	-7	-4	2
COc1cccc(NS(=O)(=O)c2ccc3[nH]cc(C(=O)NCCC(C)C)c(=O)c3c2)c1	-14	i	19	nt	2	-9	-5	-21
Cc1cccc(NC(=O)CSc2nc3nc4c(cc3c(=O)n2-c2ccccc2)CCCC4)c1	-11	i	-4	-14	-7	-20	4	-9

The list continues:
SMILES	Yeast UUG start	Rce1 inhib	CSC inhib	HIV Env fusion	PABP FP inh	eIF4H FP inh	MT1-MMP act inh	MT1-MMP act inh RFP	others
CCc1cc(C(=O)Nc2cc(S(=O)(=O)N(C)C)ccc2C)sc1C	nt	i	-3	7	-5	-10	1	-1
COc1ccc(Cn2ccnc2SCC(=O)Nc2ccccc2OC)cc1	-15	i	-11	17	-12	-4	-2	-3
CCCCn1c(N)c(N(CC(C)C)C(=O)C2CCCN(C(=O)c3ccc(Cl)cc3)C2)c(=O)[nH]c1=O (stereo unspecified)	4	i	-15	9	nt	nt	4	2
Cc1ccc(C2=NNC3(CCOC(C)(C)C3)S2)cc1 (stereo unspecified)	nt	nt	-5	-13	6	11	-3	2
Cc1cc(N2CCCC2)c(F)cc1/C=C\[N+](=O)[O-]	nt	i	nt	-149	0.6*	58	-6	2	eIF4H FP inh retest=40;PABP FP inh retest=86*
O=C(CCS(=O)(=O)c1ccc(Br)cc1)N1CCN(c2ccc(Cl)cc2)CC1	0	i	22	9	2	5	-2	-22
O=C(COC(=O)c1cccc(S(=O)(=O)NCc2ccccc2)c1)NC1CC1	-10	nt	-11	nt	nt	nt	3	0
CCOCCCNC(=S)N1CCN(CC)CC1	nt	i	-14	16	6	-3	0	6
COc1ccc(S(=O)(=O)N2CCCC(C(=O)NC3CC3)C2)cc1OC (stereo unspecified)	nt	i	-5	-5	nt	nt	4	3
O=C(Oc1c(-c2ccccc2)c(=O)n2c3c(cccc13)CC2)c1ccco1	-7	i	-2	-7	10	-2	0	4

Screening results as filed in PubChem BioAssay.
